Assay outcomes as filed in PubChem BioAssay.
CHT block = inhibits the human high affinity choline transporter. Q9GZV3. CHT-expressing cells, membrane potential dye, choline response; hits give low values. B-score at 10 µM. 310,000 compounds, 0.86% hits. AID 488975;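 active = B-score over 3 SD under the library average, and starting fluorescence ratio not unusually high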;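 also: choline stimulus applied at its EC90 after an EC20 pre-addition; B-score computed on integrated fluorescence ratio after choline addition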
Target sequence (Q9GZV3 whole entry, looked up): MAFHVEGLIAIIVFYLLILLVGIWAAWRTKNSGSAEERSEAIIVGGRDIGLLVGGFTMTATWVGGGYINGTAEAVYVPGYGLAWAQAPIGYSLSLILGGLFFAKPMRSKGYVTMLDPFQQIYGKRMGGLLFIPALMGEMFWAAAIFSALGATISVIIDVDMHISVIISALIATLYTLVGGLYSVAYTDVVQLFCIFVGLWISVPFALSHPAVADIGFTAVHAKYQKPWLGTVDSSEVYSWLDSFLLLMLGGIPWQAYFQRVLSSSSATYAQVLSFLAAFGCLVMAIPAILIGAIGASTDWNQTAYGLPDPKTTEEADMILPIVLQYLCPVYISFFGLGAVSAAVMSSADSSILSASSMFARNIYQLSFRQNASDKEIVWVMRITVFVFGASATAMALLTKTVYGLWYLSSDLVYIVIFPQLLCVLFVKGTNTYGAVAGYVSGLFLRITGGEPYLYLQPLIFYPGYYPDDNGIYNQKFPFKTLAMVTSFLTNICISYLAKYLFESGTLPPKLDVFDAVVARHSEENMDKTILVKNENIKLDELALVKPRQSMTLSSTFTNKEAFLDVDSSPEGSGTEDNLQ
Calls only; i = inactive. Only part of the results is shown; most or all hits stand in other tables.

CHT block	Molecule
i	COc1ccc(NC(=O)CC(NCCc2ccccc2)C(=O)O)c(OC)c1 (stereo not given)
i	COc1ccc(CCC(=O)NNC(=O)Nc2ccc(C(C)C)cc2)cc1
i	O=C(O)C1CCC(CNCc2ccccc2Cl)CC1 (stereo not given)
i	CCOC(=O)c1c(-c2cccc(C)c2)csc1NC(=O)C1CC=CCC1C(=O)O (stereo not given)
i	COc1ccc(CNC(=O)C(NS(=O)(=O)c2cccc3nsnc23)C(C)C)cc1 (stereo not given)
i	COc1ccc(N2CCN(C(C)C(=O)N3CCc4ccccc43)CC2)cc1 (stereo not given)
i	COc1cc(CCC(=O)OCC(=O)Nc2ccc3c(c2)OCO3)cc(OC)c1OC
i	CN1COc2ccc3ccccc3c2C1
i	Cc1cc(C(=O)Nc2ccccc2C)on1
i	COc1ccc2c(c1)[nH]c1c(N3CCSCC3)ncnc12
i	Cc1csc(NC(=O)C2CCCN2C(=O)Oc2ccccc2)n1 (stereo not given)
i	CCOC(=O)C(C(=O)OCC)N(C#N)c1nc(C)cc(C)n1
i	Cc1cccc(NC(=S)NC(NC(=O)c2ccco2)C(Cl)(Cl)Cl)c1 (stereo not given)
i	O=C(NC12CC3CC(CC(C3)C1)C2)c1cccnc1
i	CCCC(=O)NC1C2CC3CC(C2)CC1C3 (stereo not given)

Looked up by compound from the list above, 5 records:
CHT block	Molecule
i	CCOC(=O)c1c(-c2cccc(C)c2)csc1NC(=O)C1CC=CCC1C(=O)O (stereo not given)
i	O=C(O)C1CCC(CNCc2ccccc2Cl)CC1 (stereo not given)
i	COc1ccc(CCC(=O)NNC(=O)Nc2ccc(C(C)C)cc2)cc1
i	CCCC(=O)NC1C2CC3CC(C2)CC1C3 (stereo not given)
i	COc1ccc2c(c1)[nH]c1c(N3CCSCC3)ncnc12

(further entries)
CHT block	Molecule
i	O=C(Cc1ccc(S(=O)(=O)N2CCCCC2)s1)Nc1ccc(F)cc1F
i	O=C(NC(=S)NC1CCCc2ccccc21)c1ccco1 (stereo not given)
i	Cc1cnccc1CN(C)Cc1cn(C)nc1-c1cccc(Cl)c1
i	O=S(=O)(Nc1ccc(S(=O)(=O)Nc2nccs2)cc1)c1ccc(Br)cc1
i	CCOC(=O)c1sc(NC(=O)CSc2nc3ccccc3o2)c(C(=O)OCC)c1C
i	CC(NC(=O)c1ccccc1NC(=O)CSc1nnnn1C)c1ccccc1 (stereo not given)
i	CN(CCC1CCOCC1)C(=O)CC1C(=O)NCCN1Cc1ccoc1 (stereo not given)
i	Cc1cc(C(=O)NCCCN2CCOCC2)n(-c2ccccc2)n1
i	Cc1cccc(C)c1NC(=O)CS(=O)CC(=O)NCC1OCCc2ccccc21 (stereo not given)
i	COC(=O)COc1ccccc1C(=O)Nc1ccc(OC)cc1
i	CCN(CC)S(=O)(=O)c1ccc(NS(=O)(=O)CC23CCC(CC2=O)C3(C)C)cc1 (stereo not given)
i	O=C(c1cccc2ccccc12)C1CCCN(C(=O)C2CCOCC2)C1 (stereo not given)
i	COC(=O)C1CCN(c2cc(=O)n(C3CCCCC3)c(=O)[nH]2)CC1
i	COc1ccc(-c2csc(NC(=O)c3ccc(N4C(=O)CCC4=O)cc3)n2)cc1
i	Cc1ccc2[nH]c(=O)c(CNS(=O)(=O)c3ccccc3)c(-c3ccccc3)c2c1
i	O=C(NCCCc1nc2ccccc2[nH]1)c1ccco1
i	O=C(CCc1nnc2ccc(NCc3ccco3)nn12)N1CCN(c2ccc(F)cc2)CC1
i	COc1ccccc1CCNC(=O)C1CCN(c2nnc(C)c3c(C)n(-c4ccc(C)cc4)nc23)CC1
i	Cc1cccc(CNC(=O)CC2C(=O)NCCN2C2CCCC2)c1 (stereo not given)
i	CC(Oc1ccccc1)C(=O)N1CCN(C(=O)C(C)Oc2ccccc2)CC1 (stereo not given)
i	Cc1ccc(CSc2ncnc3onc(C)c23)cc1
i	Cc1ccc(-n2cc(-c3ccccc3)c3c(NN4CCOCC4)ncnc32)cc1
i	O=C(Nc1cc(=O)[nH]c2ncnn12)c1ccccc1Cl
i	CC(C)(C)c1ccc(OCCCC(=O)Nc2ccc(S(N)(=O)=O)cc2)cc1
i	CCOc1ccc(CCNc2nc3ccc(C)cc3n3cnnc23)cc1OCC
i	CCOc1ccc(C(=O)NC2=NCCS2)cc1
i	Cc1ccccc1OCCn1cc(C(=O)O)c2ccccc21
i	Cc1cccn2c(=O)c3cc(C(=O)NC4CCCCC4)c(=N)n(Cc4ccc(F)cc4)c3nc12
i	CCCCNC(=S)N/N=C1\C(=O)c2cccc3cccc1c23
i	Cc1nc(Nc2cccc(Cl)c2)c2oc3ccccc3c2n1

Structures from the list above that contain an aryl thioether with sulfur outside any ring:
CHT block	Molecule
i	CCOC(=O)c1sc(NC(=O)CSc2nc3ccccc3o2)c(C(=O)OCC)c1C
i	CC(NC(=O)c1ccccc1NC(=O)CSc1nnnn1C)c1ccccc1 (stereo not given)
i	Cc1ccc(CSc2ncnc3onc(C)c23)cc1

Remaining list, next part:
CHT block	Molecule
i	Cn1nc(C(=O)N2CCN(c3cccc(Cl)c3)CC2)c2c1-c1ccccc1S(=O)(=O)C2
i	Cn1c(=O)nc2n(Cc3ccccc3)c3cccc(Cl)c3cc-2c1=O
i	CCOc1ccc(NC(=S)N(CC)Cc2ccccc2)cc1
i	Cc1ccc(C)c(NC(=O)C2CC(=O)N(C(C)C)C2)c1 (stereo not given)
i	Cc1cc(NC(=O)C(C)SCC(=O)N(C)CC(=O)Nc2ccc(F)cc2)no1 (stereo not given)
i	CC(NC(=O)c1cc(S(=O)(=O)N2CCOCC2)ccc1N1CCCC1)c1ccc(Cl)c(Cl)c1 (stereo not given)
i	Cc1c(C(=O)Nc2ccccc2)sc2ncn(CC(=O)N3CCCCC3)c(=O)c12
i	COc1ccc(-c2nnn(-c3ccc(Cl)cc3Cl)c2N)cc1
i	CCN(CC)C(=O)CSc1nc(N)c2c3c(sc2n1)CC(C)CC3 (stereo not given)
i	CCCN(CCC)CCNC(=O)C1(O)c2ccccc2NC(=O)N1c1cccc(OC)c1 (stereo not given)
i	COC(=O)N/N=C/c1cc(C)n(-c2cccc3ccccc23)c1C
i	COc1cc(C2C(C(C)=O)=C(C)Nc3ncnn32)ccc1O (stereo not given)
i	COc1ccc(C(=O)OCC(=O)NCC2CCCO2)cc1[N+](=O)[O-] (stereo not given)
i	Cc1ccc(-c2cc(C(F)F)n3ncc(C(=O)N4CCc5ccccc54)c3n2)cc1
i	O=C(O)c1cccc(NC(=O)c2cn(-c3ccccc3)nc2-c2cccc(Br)c2)c1
i	O=C1Cc2cc(S(=O)(=O)N3CCCCC3)ccc2N1
i	CCCNc1ccc(S(=O)(=O)N(CC)CC)cn1
i	O=C(CNC(=O)C1COc2ccccc2O1)N/N=C\c1ccc(Br)cc1 (stereo not given)
i	O=C(CNC(=O)c1ccc2ccccc2c1)NCc1ccc(F)cc1
i	Nc1nc(NCCCN2CCOCC2)nc(Nc2ccc(Cl)cc2)c1[N+](=O)[O-]
i	NC(=O)c1ccc(NC(=O)CSc2cn(CC(=O)N3CCOCC3)c3ccccc23)cc1
i	Cc1onc2c(=O)n(-c3ccccc3)nc(-c3ccccc3)c12
i	CCOc1ccc(S(=O)(=O)NCc2ccc3c(c2)OCO3)cc1
i	COc1ccccc1-n1nnnc1SCc1cc2c(cc1Br)OCO2
i	O=C(COC(=O)c1cc(S(=O)(=O)N2CCOCC2)ccc1O)NCC1CCCO1 (stereo not given)
i	COc1cccc(C(=O)Oc2c(CN3CCOCC3)cc(Cl)c3cccnc23)c1
i	Cc1ccc2c(c1)C1OCCC1C1N2C(=O)C2C(C(=O)O)C3C=CC21O3 (stereo not given)
i	CC(=O)c1ccccc1NS(C)(=O)=O
i	CC(NC(=O)Nc1ccc(F)cc1F)c1ccc2c(c1)OCO2 (stereo not given)
i	COc1cccc(/C=N/NC(=O)CCC(=O)Nc2ccc(Br)cc2)c1
i	CCC(C)C(=O)Nc1nccs1 (stereo not given)
i	Cc1cccc(NS(=O)(=O)c2ccc(-c3ccc(=O)[nH]n3)o2)c1
i	Cc1cc(C)cc(CSCC(=O)N/N=C/c2ccc(OCC(=O)NCc3ccco3)cc2)c1
i	COc1ccc(/C=C/C(=O)NCC(=O)N/N=C(/CCC(=O)O)c2ccccc2)cc1
i	Cn1ccnc1C(O)(c1nnc(-c2ccccc2)o1)C(F)(F)F (stereo not given)
i	O=C(Nc1ccc(-c2nc3ccccc3[nH]2)cc1)c1ccco1
i	O=C(OCC(=O)c1c[nH]c2ccccc12)c1ccco1
i	CC1(C)Cc2c(C#N)c(SCc3nc4ccccc4[nH]3)nc(N3CCOCC3)c2CO1
i	O=C(COc1ncnc2ccc(Br)cc12)NCc1ccco1
i	O=C(/C=C/c1ccco1)NC(=S)Nc1cc(C(F)(F)F)ccc1N1CCOCC1
i	CC1CC(C)CN(CCCCOc2ccc([N+](=O)[O-])cc2)C1 (stereo not given)
i	CCN(CC)c1ccc(NC(=O)COc2ccc(C#N)cc2)cc1S(=O)(=O)Nc1ccc(OC)cc1
i	O=C(O)C(c1ccccc1)C1(O)CCCC1 (stereo not given)
i	CC1C(=O)N2CCCc3cc(S(=O)(=O)N4CCN(c5cccc(Cl)c5)CC4)cc1c32 (stereo not given)
i	Cc1nc2oc(C(=O)c3ccc(Br)cc3)c(N)c2c2c1COC(C)(C)C2
i	Cc1ccc(NC(=O)/C(=C\c2cccc([N+](=O)[O-])c2)NC(=O)c2cccs2)cc1
i	COc1ccc(N2CCN(C(=S)Nc3cccc(C)c3)CC2)cc1
i	CC(=O)c1c(O)c(C)c(-c2ccccc2)n(-c2ccccc2)c1=O
i	O=C(CN1CCC(O)(c2ccc3c(c2)OCO3)CC1)N1CCOCC1
i	Cc1cc(C)nc(CCNC(=O)c2cc(COc3c(F)cccc3F)on2)n1
i	C#CCOc1ccc(/C=C2/C(=O)ON=C2C)cc1OCC
i	CC12COC3(C(N)=O)CC1CCC32C (stereo not given)
i	Cc1cc(NC(=O)COc2c(C)cccc2C)no1
i	Cc1ccc(S(=O)(=O)N2CCCC(C(=O)NCC(C)C)C2)cc1 (stereo not given)
i	Cc1ccccc1CCN(CC(=O)NCc1ccc(F)cc1)C(=O)c1csnn1
i	CC1CCN(C(=O)C(=O)Nc2sc3c(c2C(=O)O)CC(C)(C)OC3)CC1
i	Oc1c(C(c2ccccc2)N2CCN(Cc3ccccc3)CC2)sc2ncnn12 (stereo not given)
i	Cc1ccc(NC(=O)CCCc2nc3ccccc3s2)c(O)c1
i	COc1ccc(NCc2cc3ccccc3[nH]c2=O)cc1
i	COC(=O)C1=C(C(=O)OC)[C@@H]2Nc3ccccc3[C@@]23C[C@@H](C(=O)OC)N(C(=O)COCc2ccccc2)C3=N1

Shown as comma-separated lines: entries from further up
Structure,CHT block
C#CCOc1ccc(/C=C2/C(=O)ON=C2C)cc1OCC,i
CC12COC3(C(N)=O)CC1CCC32C (stereo not given),i

The results go on.
CHT block	Molecule
i	Cc1n[nH]c(=S)n1/N=C/c1ccccc1OCc1ccc(Cl)cc1Cl
i	CCOC(=O)Cn1nnnc1C(CC)N(Cc1cccs1)Cc1cc2ccc(OC)cc2[nH]c1=O (stereo not given)
i	Cc1cc(OC(C)C(=O)N(Cc2cccs2)C2CCS(=O)(=O)C2)ccc1Cl (stereo not given)
i	CN(C)CCN(C(=O)CCS(=O)(=O)c1ccccc1)c1nc2cc3c(cc2s1)OCO3
i	O=C(Nc1ccc(N2CCOCC2)c(Cl)c1)c1ccc2c(c1)OCCO2
i	CCC(COC(=O)Nc1ccccc1)NC(=O)OC(C)C (stereo not given)
i	Cc1ccccc1C(=O)NC(=S)N(CCO)Cc1ccccc1
i	COc1ccc(OC)c(C(=O)NC(CC(N)=O)c2ccc(NCc3ccc(F)c(F)c3)c([N+](=O)[O-])c2)c1 (stereo not given)
i	O=C(CSc1nnc2c(n1)[nH]c1ccccc12)NCc1ccccc1F
i	CN(CCC#N)C(=O)CSc1nnc(-c2ccco2)n1N
i	CN(C)CC(C)(C)CNS(=O)(=O)c1ccc(Cl)c(Cl)c1
i	Cc1ccc(C(C)C)c(OCC(=O)NN=C2CCCC2)c1
i	S=C(c1c[nH]c2ccccc12)N1CCOCC1
i	Cc1ccccc1NC(=O)COC(=O)CCSc1ccccc1
i	CC(c1ccco1)N(C(=O)c1cccc(S(=O)(=O)N(C)C)c1)c1ccccn1 (stereo not given)
i	Cc1ccc(C(C)C)c(OCCNC(=O)c2ccccc2O)c1
i	O=C(NC1CCCCC1)c1ccc(Cn2cc(Cl)cn2)cc1
i	CCN(CC)CCn1c(NC(=O)c2ccccc2O)nc2ccccc21
i	Cn1nc(C(=O)Nc2nc(-c3ccc(F)cc3)cs2)ccc1=O
i	CC1(C)CCC(C)(C)NC(=S)N1
i	CN1CCN(C(=O)N2c3ccccc3CCc3ccccc32)CC1
i	Cc1cc(C)n2nc(C)c(-c3ccc(Cl)cc3)c2n1
i	CCOc1cccc(/C(O)=C2/C(=O)C(=O)N(Cc3ccco3)C2c2ccncc2)c1 (stereo not given)
i	CCCC(=O)Nc1cc(OC)c(NC(=O)NC2CCCCC2)cc1OC
i	CN(C(=O)CSc1nncn1-c1ccccc1)c1ccccc1
i	COc1ccc(Cl)cc1S(=O)(=O)Nc1ccncc1
i	COC(C(=O)Nc1ccc(S(=O)(=O)Nc2c(C)cccc2C)cc1)c1ccccc1 (stereo not given)
i	Cc1c(Cc2ccccc2)c(=O)oc2c(C)c(OC(C)C(=O)NCC3CCC(C(=O)O)CC3)ccc12 (stereo not given)
i	Cc1occc1C(=O)NNC(=O)Cc1ccccc1
i	Cc1ccsc1/C=N/NC(=O)CO
